TRPML1 inh = inhibitors of human TRPML1 channel | TRPML1-inducible cells, Ca2+ dye fluorescence, FDSS; stronger effect = lower value; inhibition of EC80 agonist-evoked calcium signal | 390,000 compounds, 0.02% hits | activity change, negative = inhibition, % (concentration not given with the values) | Q9GZU1; in the data active means activity change below about -50%; inconclusive means about -30% to -50%; inactive means above about -30%;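 also: stimulus is agonist 54-4 at its EC80 concentration; % is scaled to controls: 0 for no effect and ±100 for the full control effect; the text of the record puts the active cut at -80%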
Target sequence (Q9GZU1 whole entry, looked up): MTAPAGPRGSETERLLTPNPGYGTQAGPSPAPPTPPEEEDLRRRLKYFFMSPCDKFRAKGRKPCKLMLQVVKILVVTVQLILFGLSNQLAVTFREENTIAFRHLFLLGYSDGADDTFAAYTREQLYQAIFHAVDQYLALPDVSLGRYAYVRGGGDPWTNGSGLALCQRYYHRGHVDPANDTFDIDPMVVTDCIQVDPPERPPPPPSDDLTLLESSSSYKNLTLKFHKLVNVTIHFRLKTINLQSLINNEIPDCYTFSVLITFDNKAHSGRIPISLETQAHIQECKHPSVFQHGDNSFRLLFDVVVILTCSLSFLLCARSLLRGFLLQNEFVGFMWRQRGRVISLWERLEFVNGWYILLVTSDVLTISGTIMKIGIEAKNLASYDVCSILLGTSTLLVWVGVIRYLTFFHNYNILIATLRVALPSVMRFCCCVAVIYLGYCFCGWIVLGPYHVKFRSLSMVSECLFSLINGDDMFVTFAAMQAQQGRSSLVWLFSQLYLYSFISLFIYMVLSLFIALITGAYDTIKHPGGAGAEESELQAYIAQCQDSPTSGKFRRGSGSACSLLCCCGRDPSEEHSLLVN
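TRPML1-DL cells, Tet-induced overnight (~16 h, 37 °C) at 1,500 cells/well, were loaded with Ca8 no-wash dye plus quencher for 45-90 min at room temperature. Compounds were pinned during FDSS kinetic reading; agonist 54-4 at EC80 (4 uM final) then added.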
TRPML1 ag = agonists of human TRPML1 channel. Q9GZU1. TRPML1-expressing cells, Ca2+ dye fluorescence, FDSS; host cell line not named in the record; reference of the full effect not given here. activation, % (test concentration not listed). 410,000 compounds, 0.12% hits. AID 624414; in the data active = activation above about 50%; inconclusive = about 30% to 50%; inactive = below about 30%; also: 0% is about no effect; the text of the record puts the active cut at 80%
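Tetracycline-induced TRPML1-DL cells are seeded and incubated overnight before loading with a no-wash Ca2+ dye and quencher. Agonist activity is taken from the 110 s fluorescence read following compound pin-transfer on an FDSS, before EC80 54-4 challenge.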
PINK1 modulator = changes PINK1 expression; PINK1 immunofluorescence, high-content cytometry, 24 h; 410,000 compounds, 0.2% hits; Potency, µM (highest dose often 76.6 µM), for the others: at the highest dose activation (PINK1 increase), actives largely listed as activators; AID 624263; active = well fitted activation curve with a large enough effect; inconclusive = small, poorly fitted or top-dose-only effect; inactive = flat fitted curve, though single readings scatter; cell line not stated here;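 also: potency is read from the fitted curve at half-maximal effect; % of control where 0% means no effect; nearly all actives have a fitted effect of over 65% in size; a mitochondrial uncoupler was the plate control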
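PINK1 protein, normally rapidly degraded, was detected by immunofluorescence after 24 hour compound treatment of a stable cell line. Titration data (5 concentrations) came from laser-scanning cytometry, with CCCP-treated wells as controls.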
Sfp inh = Sfp phosphopantetheinyl transferase inhibition; Potency, µM, for the others: max response, negative = inhibition, usual class: inhibitors; Q9F4F7; 310,000 compounds, 3.5% hits; Biochemical Sfp PPTase activity, qHTS; active = well fitted inhibition curve with a large enough effect; inconclusive = small, poorly fitted or top-dose-only effect, or another doubt; inactive = no such curve, though single readings can be large or run the other way;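 also: the enzyme is Sfp with the accession as filed and its product quenches rhodamine fluorescence; potency is read from the fitted curve at half-maximal effect; 0% = enzyme reaction without inhibitor and -100% = no enzyme wells; top concentration of the series not given in the record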
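Fluorescence-quenching assay: 15 nM Sfp-PPTase preincubated 15 min at room temperature with compound, then 5 uM rhodamine-CoA and 12.5 uM BHQ-2-labelled YbbR peptide added. Fluorescence (ex 525/em 598 nm) read at start and after 30 min; difference gives rate.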
Menin MLL FP FL = menin-MLL binding inhibition, fluorescein peptide. AID 1766. FP activity change, % at 61.4 µM. Fluorescence polarization, fluorescein-MLL peptide displacement from menin. 290,000 tested, under 10 active; inconclusive = falling polarisation curve, or a change in total fluorescence; inactive = total fluorescence flat and polarisation flat or rising; no compound was filed as active; the % refers to the polarisation; negative = inhibition;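 also: % of control where 0% means no effect; inhibitors lower the polarisation; unlabelled MLL peptide was the positive control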
TRPV1 PAM = enhances activation of the human vanilloid receptor TRPV1 | TRPV1-expressing cells, Fluo-8 calcium influx, capsaicin EC20 potentiation; host cell line not named in the record; control for the full effect not named in the record | Q8NER1 | potentiation, % at 8.33 µM | 320,000 compounds, 0.02% hits; active means potentiation above 80%; inconclusive means 30% to 80%; inactive means below 30%; also: 0% is about no effect
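Cells expressing TRPV1 were dye-loaded with Fluo-8 and read kinetically: 10 s baseline, 3 min after compound (agonist portion), then 2 min after EC20 capsaicin (allosteric enhancer portion). Calcium-bound dye fluorescence at 480/520 nm.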
ClpP mod = qHTS Assay for Activators of ClpP; purified B. subtilis ClpP, FRET peptide cleavage, 20 min; Potency, µM (highest dose often 57.5 µM), inactives show at the highest dose activity change, negative = active; 340,000 compounds, 1.9% hits; AID 651965, 2013; active = well fitted falling curve with a large enough effect; inconclusive = small, poorly fitted or top-dose-only effect; inactive = no such curve, though single readings can be large or run the other way; also: potency is read from the fitted curve at half-maximal effect; the source files actives as falling curves though it sought activators and does not explain the sign; nearly all actives have a fitted effect of over 65% in size; many hits overshoot -100%
Target sequence (P80244 whole entry, looked up): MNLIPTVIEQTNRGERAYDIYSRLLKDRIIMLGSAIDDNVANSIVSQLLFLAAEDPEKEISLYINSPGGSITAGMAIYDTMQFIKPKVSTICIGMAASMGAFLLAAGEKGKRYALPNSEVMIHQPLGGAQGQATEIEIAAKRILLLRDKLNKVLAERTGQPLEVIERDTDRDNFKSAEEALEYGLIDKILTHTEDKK
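FRET quenching reversal measured ClpP activation: 10 microg/mL B. subtilis ClpP at pH 8 with the FRET-FV decapeptide, read at 430 nm after 320 nm excitation. The 20-min minus 0-min signal was scaled between DMSO/no-enzyme wells and ADEP (5.8 microM final).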
* marks the source's active call; other numbers are inactive results; ? = inconclusive; . = no result given; & = joins results of further samples; [ ] = another dose, or the depositor's remark.

Each structure is followed by: TRPML1 inh | PINK1 modulator | Sfp inh | ClpP mod | Menin MLL FP FL | TRPML1 ag | TRPV1 PAM
CCC(=O)Nc1cccc(C2=NOC3(C2)C[C@@H](C(N)=O)N(C(=O)CC(c2ccccc2)c2ccccc2)C3)c1 (stereo not given in full)
    5.4 | 2.4% | 4.4% | -5.8% | 0.4 | 0.1 | -36.7
Cc1ccc(-n2ncc3c(NCCc4ccccc4)ncnc32)cc1C
    42.9 | 0.1% | . | 28.2µM* | . | 1.3 | .
COc1cc(NC(=O)c2cccnc2)ccc1NC(=O)c1ccccc1Cl
    9.0 | 6.3% | 8.4% | . | -5.0 | 0.0 | 1.2
O=C(Cn1c(=O)n(-c2ccccc2)c(=O)c2oc3ccccc3c21)Nc1ccccc1
    11.8 | 0.7% | 1.0% | 13.9% | 0.7 | -0.6 | -6.4
CCOCCCNC(=O)C(NC(=O)c1ccccc1O)c1ccc(Cl)cc1 (stereo not given)
    -14.3 | 0.6% | 11.8% | . | -0.3 | 3.2 | -7.2
Cc1cc(C)nc(OC(=O)c2c(Cl)cc(Cl)cc2Cl)n1
    0.1 | -0.7% | 8.1% | . | -0.4 | 0.0 | 4.2
O=C(CCN1CCN(c2ccc(Cl)cc2)CC1)Nc1nccs1
    3.9 | -3.3% | 10.8% | 0.9% | 14.9 | 0.8 | 18.1
COc1ccccc1NS(=O)(=O)c1cc(C(=O)N2CCCCCC2)ccc1C
    4.4 | 0.0% | . | . | . | 0.2 | .
CCC(C)(C)NC(=O)CSc1nc(Cc2ccccc2)nc2ccccc12
    50.5 | 1.4% | -4.0% | . | -4.3 | 4.4 | -12.8
CCS(=O)(=O)N1CCC(NC(=O)C(Cc2cc(OC)ccc2OC)NC(C)=O)CC1 (stereo not given)
    48.2 | -0.6% | 4.9% | . | 3.0 | 1.2 | 7.3

The results go on.
Each structure is followed by: TRPML1 inh | PINK1 modulator | Sfp inh | ClpP mod | Menin MLL FP FL | TRPML1 ag | TRPV1 PAM
CCCSc1n[nH]c(NC(C)=O)n1
    -15.4 | 2.9% | -16.1% | -0.5% | 4.7 | -0.5 | .
CC(C)NC(=O)NC(=O)COC(=O)C1CCCN1C(=O)c1cccs1 (stereo not given)
    -10.4 | -2.2% | 15.7% | -4.3% | 0.6 | -0.6 | 7.3
N#CC1=C(Nc2ccccc2)SC=C(c2ccccc2)N=C1N1CCOCC1
    -5.9 | -2.1% | -14.9% | -3.4% | 7.2 | -0.1 | 23.1
Cn1c(SCC(=O)c2ccc(-c3ccccc3)cc2)nnc1-c1ccco1
    -12.5 | -2.6% | 2.0% | 1.2% | -3.1 | -0.6 | 8.9
CCNC(=O)c1ccc(NS(=O)(=O)c2ccccc2)cc1
    -19.1 | 0.9%[38.3 µM] | 3.2% | 1.9% | -3.3 | 0.4 | -7.3
Cn1c(=O)c2c(nc(NCc3ccco3)n2C)n(C)c1=O
    -6.6 | -5.5%[38.3 µM] | 3.9% | -0.2% | -2.8 | -0.2 | 3.0
O=C(NCc1cccc(C(F)(F)F)c1)c1csc([C@H]2C[C@H](O)[C@@H](CO)O2)n1
    . | 3.2% | . | 0.7% | . | -0.6 | .
COc1cc2[nH]c(=O)n(Cc3ccc(C(=O)NCCCN4CCC(C)CC4)cc3)c(=O)c2cc1OC
    16.0 | -0.7% | 5.2% | ? | -2.0 | 0.2 | 2.2
COc1ccc(-c2nnc(-c3ccc4ccccc4c3)o2)cc1
    11.7 | 7.7% | . | . | . | 4.2 | .
O=C(CSc1nc(-c2cccs2)nc2cc(=O)[nH]n12)Nc1ccc(F)cc1
    -1.5 | 5.0% | . | -0.3% | . | -0.8 | .

New compounds follow
Each structure is followed by: TRPML1 inh | PINK1 modulator | Sfp inh | ClpP mod | Menin MLL FP FL | TRPML1 ag | TRPV1 PAM
CC(=O)N/C(=C\c1ccc2c(c1)OCO2)C(=O)NC(C(=O)O)c1ccccc1 (stereo not given)
    2.6 | 0.8% | 15.5% | . | 6.0 | 1.1 | 0.2
CSc1nn(Cc2cccc(Cl)c2)c(N(C(C)=O)C(C)=O)c1S(=O)(=O)c1ccccc1
    7.5 | ? | . | -0.9% | . | 1.0 | .
CC(NC(=O)/C=C/c1ccco1)c1nc2ccccc2n1Cc1ccccc1F (stereo not given)
    16.0 | 1.5% | ? | 3.0% | 5.4 | 1.0 | 21.1
COC(=O)CCCN1C(=O)c2cccc3cccc(c23)C1=O
    7.5 | -0.5% | 2.5% | -8.1% | 4.9 | -0.4 | 2.5
Cc1nc(-c2cccc(F)c2)sc1CCNC(=O)c1c(F)cccc1Cl
    32.4 | 0.3% | . | 4.4% | . | 3.3 | .
CS(=O)(=O)c1ccc(NC(=O)C2CCCN(C(=O)c3ccc(Cl)cc3)C2)cc1 (stereo not given)
    5.5 | 0.5% | . | -2.3% | . | -0.4 | -12.3
CCOCC(=O)N1CCN(Cc2ccc3c(c2)OCO3)CC1
    -9.6 | 0.4% | 6.3% | 0.5% | 1.7 | -0.4 | 8.7
CCOc1ccc(Cl)cc1S(=O)(=O)N1CCC(C(=O)NC2CC2)CC1
    -5.0 | 1.0% | 14.7% | . | 0.2 | 0.0 | -4.1
CCOc1ccc(NC(=S)N2CCC(C(=O)c3ccc(OC)cc3)CC2)cc1
    -3.3 | 0.6% | . | -0.3% | . | 0.7 | .
COc1ccc(C2C=C(c3ccccc3)Nc3ncnn32)cc1 (stereo not given)
    5.1 | 0.2% | -13.9% | 29.0% | ? | -0.4 | -11.1

(further entries)
Each structure is followed by: TRPML1 inh | PINK1 modulator | Sfp inh | ClpP mod | Menin MLL FP FL | TRPML1 ag | TRPV1 PAM
COc1cc(/C=N/NC(=O)NC23CC4CC(CC(C4)C2)C3)ccc1OCC(N)=O
    -7.7 | 0.2% | 4.7% | 0.0% | 1.3 | 0.8 | 4.7
O=C(CSCc1ccc(Cl)cc1Cl)Nc1c[nH]c(=O)[nH]c1=O
    5.9 | 18.6% | -0.7% | 0.4% | 5.4 | 1.3 | -1.3
COc1ccc(-c2nn(-c3ccccc3)cc2C=O)cc1[N+](=O)[O-]
    -4.9 | 5.8% | 15.7% | 1.1% | 2.5 | 0.3 | -1.7
C=C1[C@@H](CCO)N(S(=O)(=O)C(C)(C)C)C[C@@H]1C
    2.5 | 0.2% | . | 2.4% | . | -0.7 | .
Cc1ccc(Nc2n[nH]c(=S)s2)cc1C
    18.9 | -0.7% | . | -0.4% | . | -0.1 | .
Cc1cccc(C)c1N(CC(=O)N1CCN(C)CC1)S(C)(=O)=O
    -3.6 | 2.8% | 15.0% | 1.4% | 4.3 | -0.9 | 4.2
Oc1ccc(Oc2ncc(Cl)cc2Cl)cc1
    15.4 | 0.9% | 9.2% | -0.8% | 0.4 | 0.4 | ?
Cc1nc2sccn2c(=O)c1S(=O)(=O)Nc1ccc(N2CCOCC2)c(Cl)c1
    -3.9&-12.4 | 1.0%&1.2% | 1.0% | -0.4%&-0.5% | 0.2 | 0.5&0.3 | -8.4
Cc1ccc(-c2cc([C@H]3[C@@H]4C=CCC[C@@]4(C)C(=O)N3Cc3ccccc3)ccc2F)cc1
    1.8 | ? | -15.9% | ? | 0.8 | -0.1 | ?
Cn1c(SCC(=O)NC(C)(C)C)nc(O)cc1=O
    -7.7 | -0.3%[38.3 µM] | -8.2% | 0.9% | -2.2 | 5.1 | ?

Next entries:
Each structure is followed by: TRPML1 inh | PINK1 modulator | Sfp inh | ClpP mod | Menin MLL FP FL | TRPML1 ag | TRPV1 PAM
O=C(Nc1ccccc1C(=O)Nc1ccncc1)c1ccc([N+](=O)[O-])cc1
    0.3 | 6.8% | 4.1% | . | -0.4 | -0.7 | 6.3
COC(=O)C(NS(N)(=O)=O)C(C)C (stereo not given)
    0.9 | . | 8.2% | . | 0.1 | -0.3 | .
CC/C(=N/NC(=O)c1ccccc1O)c1c(C)[nH]n(-c2ccccc2)c1=O
    -12.6 | 0.5% | . | . | . | 0.8 | .
O=S(=O)(Nc1ccc(Br)cn1)c1cccs1
    -8.3 | -1.5% | 6.4% | . | 4.9 | 0.0 | 3.7
COc1ccc(N2CCN(Cc3nc4c(c(=O)[nH]c(=O)n4C)n3Cc3ccccc3F)CC2)cc1
    28.8 | 1.2% | . | -0.9% | . | 0.0 | .
Cc1cccc(NC(=S)Nc2cccc(C(F)(F)F)c2)n1
    15.3 | 5.3% | -6.7% | -2.2% | -0.7 | 2.9 | -1.4
CCOc1ccc(NC(=O)c2ccc(S(=O)(=O)N(C)C)cc2)cc1
    -4.1 | -0.8% | 6.6% | 0.0% | 2.6 | -0.9 | -3.8
O=C(Nc1ncn[nH]1)c1c(Cl)ccc(Cl)c1Cl
    4.3 | 0.7% | 15.4% | -0.5% | -1.7 | -1.2 | 8.9
C=CCCc1ccc(C#N)c(SCc2c(C(=O)OCC)c3cc(OC(C)=O)c(Br)cc3n2C)n1
    8.0 | 1.6% | ? | 0.2% | -0.4 | 1.7 | 4.5
CC1(C)OC(=O)N2CCc3ccccc3C21C (stereo not given)
    3.6 | 0.8% | 23.4% | 0.7% | 0.6 | 0.2 | 4.2

Remaining list, next part
Each structure is followed by: TRPML1 inh | PINK1 modulator | Sfp inh | ClpP mod | Menin MLL FP FL | TRPML1 ag | TRPV1 PAM
Cc1noc(Cn2c(=O)c3ccccc3n(CC(=O)Nc3ccc(F)cc3F)c2=O)n1
    9.1 | 2.1% | . | -10.0% | . | -0.1 | .
Oc1ccc(-c2nc3ccccc3s2)cc1
    -2.1 | -0.3% | 17.3% | 4.5% | 0.5 | -0.3 | -2.3
COc1nc(Nc2cccc([N+](=O)[O-])c2)nc(OC)n1
    14.3 | 1.3% | -3.4% | . | 2.6 | 1.4 | 0.5
COc1cc(CN2CCNC(=O)C2CC(=O)NCCc2ncccc2C)cc(OC)c1 (stereo not given)
    38.4 | 1.2% | ? | . | -14.7 | -0.5 | 6.6
COc1cc(-c2nnc(-c3ccccc3)o2)cc(OC)c1OC
    -11.8 | 0.1% | 16.1% | ? | -1.4 | -1.5 | 3.6
O=C(Nc1ccccc1N1CCCCC1)c1ccc(-c2cccc(Cl)c2)o1
    0.2 | 2.2% | -20.6% | -0.9% | . | 0.0 | -6.0
CCOc1ccc(CCN2C(=S)N([C@@H](Cc3ccc(O)cc3)CN3CCC[C@@H]3CN3C(=S)NC[C@@H]3CC(C)C)C[C@@H]2CC(C)C)cc1
    -18.8 | 1.0% | . | -2.0% | . | 0.6 | .
N#Cc1cc2ccccc2nc1N
    -3.1 | -0.8% | 0.2% | . | 2.8 | 1.2 | -4.4
